CSC inhib: cancer stem cell viability inhibitors, primary screen, luminescence; inhibition, % at 7.5 µM; cancer stem cell-like cells viability; 300,000 compounds, 1.1% hits;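 active means mean at 75% or more and at least half the replicates too; tested in HMLE shEcad cells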;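 further: 0% = median of negative and 100% = median of positive control wells; the first replicate is given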
eIF4H FP inh: human eIF4H binding inhibitors, primary screen, translation initiation inhibitor project, biochemical, uHTS, fluorescence polarization | Eukaryotic translation initiation factor 4H (Homo sapiens), Q15056 | eIF4H fluorescence polarization binding assay | inhibition, % at 35 µM | 290,000 compounds, 0.94% hits | AID 2012, 2009;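 active means 50% or more with normal probe brightness, or confirmed in later tests; about a fifth of its hits are not listed in these tables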;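 further: calls also rest on retests at 20 µM and on dose response follow-up; 0% = protein and probe with vehicle and 100% = probe without protein; strong numbers were not always called active; many hits fall short of the cut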
MT1-MMP act inh: blockers of MT1-MMP proenzyme processing, primary screen, HT1080 RFP-PRO-GFP cells, GFP/RFP fluorescence | GFP/RFP ratio fluorescence, overnight; percent of plate control window, DMSO zero | GFP/RFP ratio change, % at 20 µM | 360,000 compounds, 0.061% hits;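 active means GFP/RFP ratio change of at least 30% with cell ATP level not reduced by more than half and red fluorescence within 50% of control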; further: strong numbers were not always called active
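Compound: 20 µM single dose, 1% DMSO / System: HT1080 RFP-PRO-GFP cells / Controls: DMSO and RFP-L50D-GFP cell wells / Read-out basis: GFP/RFP fluorescence ratio / Schedule: overnight compound exposure at 37 °C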
Rce1 inh: yeast Rce1p protease inhibitors, primary screen, biochemical, fluorescence, cell-free homogeneous | CAAX prenyl protease 2 (Saccharomyces cerevisiae (strain ATCC 204508 / S288c)), Q03530 | yeast membranes, quenched prenylated peptide cleavage fluorescence | calls only | 290,000 compounds, 0.27% hits | AID 2563, 2010;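 active means fall in fluorescence gain of 50% or more versus controls, with final raw signal at or below 3038400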;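 further: plate controls were neutral control wells for no effect and wells lacking membranes for full effect; tested at 10 µM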
Target sequence (Q03530 whole entry, looked up): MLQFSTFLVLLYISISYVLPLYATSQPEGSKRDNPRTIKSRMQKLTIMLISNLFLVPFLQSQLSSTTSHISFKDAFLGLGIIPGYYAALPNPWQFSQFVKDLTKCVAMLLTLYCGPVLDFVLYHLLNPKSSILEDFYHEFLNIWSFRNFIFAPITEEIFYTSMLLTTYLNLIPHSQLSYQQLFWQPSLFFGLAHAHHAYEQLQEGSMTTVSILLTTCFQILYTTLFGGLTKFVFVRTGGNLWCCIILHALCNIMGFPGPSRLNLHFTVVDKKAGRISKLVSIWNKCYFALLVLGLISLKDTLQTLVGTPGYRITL
PABP FP inh: PABP poly(A) RNA binding inhibitors, primary screen, biochemical, fluorescence polarization, uHTS; Polyadenylate-binding protein 1 (Homo sapiens), P11940; inhibition, % at 35 µM; 290,000 compounds, 1% hits;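 active means 50% or more with normal probe brightness, or confirmed in later tests; about a fifth of its hits are not listed in these tables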;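 further: calls also rest on retests at 20 µM and on dose response follow-up; controls were probe without protein and protein plus probe with vehicle; some compounds called inactive have numbers as strong as hits; many hits fall short of the cut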
UUG fidelity: modulators of yeast start codon fidelity, primary screen, whole organism, S. cerevisiae, single point, plate reader | S. cerevisiae UUG-firefly luciferase reporter, luminescence/redox ratio | activity score, % at 18.7 µM | 350,000 compounds, 0.13% hits;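 active means replicate mean at a twofold rise or more, about +100% in these data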;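 further: firefly luciferase made from a UUG start codon reports start codon fidelity; reporter light over untreated wells divided by growth signal over untreated wells; some hits fall short of that in this replicate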
HIV Env fusion: inhibitors of HIV-1 Env-driven cell-cell fusion, primary screen, HeLa-JRFL effector, CEM21 target cells, luciferase; inhibition, % at 12.3 µM; 360,000 compounds, 1.1% hits;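 active means mean replicate inhibition score of at least 50 and every replicate individually at or above 50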;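 further: 0% = plate neutral controls and 100% = maraviroc near 300 nM; one replicate is shown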
MT1-MMP act inh RFP: second read-out of MT1-MMP act inh, no call of its own (marks repeat the call); RFP signal change, %; measured here: RFP expression control read;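 0 = vehicle wells; hits needed this value within 50% of zero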
Numbers without * were called inactive; i = inactive; nt = no result given.

SMILES	CSC inhib	eIF4H FP inh	MT1-MMP act inh	MT1-MMP act inh RFP	Rce1 inh	PABP FP inh	UUG fidelity	HIV Env fusion
C=CCN1C(=O)c2ccc(C(=O)N(C)CC(=O)Nc3ccccc3C(F)(F)F)cc2C1=O	nt	0	1	0	i	4	3	nt
COc1ccc(CCN(Cc2ccc(C(C)C)cc2)S(=O)(=O)c2ccc(S(=O)(=O)N(C)C)cc2)cc1OC	22	-5	0	4	i	-5	nt	-10
Cc1nn(CCC(=O)NCCc2ccccc2Cl)c(=O)c2nn(-c3ccccc3)c(C)c12	-13	-11	3	1	i	14	3	1
O=C(CN(C(=O)CNS(=O)(=O)c1ccccc1)c1ccc2c(c1)OCCO2)NC1CCCCC1	-13	1	-2	2	i	-7	0	nt
O=C(Nc1ccccc1)C(=O)Nc1cccnc1	4	-13	1	4	i	2	-18	-74
O=C(Nc1cccnc1)c1ccc(-c2cc(Cl)ccc2Cl)o1	4	-5	9	-14	i	-15	nt	-19
O=C(O)CC12CSc3[nH]c(=O)sc3C1c1ccccc1OC2=O (stereo unspecified)	nt	3	nt	nt	i	24	nt	nt
C(=C\c1ccccc1)/CN1CCN(Cc2nc(Cc3ccccc3)no2)CC1	-16	4	1	0	i	-6	nt	-2
Cc1ccc2[nH]c3c(c2c1)CN(C(=O)CN1CCN(c2ccccc2)CC1)CC3	nt	77*	nt	nt	i	90*	nt	nt
Nn1c(N2CCCCC2)nc2ccccc21	-1	-2	1	3	i	6	5	nt
CCCc1nnc(SCC(=O)N2C(C)CCCC2C)n1CC1CCCO1 (stereo unspecified)	-2	4	9	4	i	6	-14	-36
Cc1cccc(Cl)c1OCCCn1ccnc1	-1	1	-2	2	i	8	-10	-11
CC(CCc1ccccc1)NC(=O)c1ccc(Cl)nc1 (stereo unspecified)	-11	1	-2	2	i	3	-2	-24
COc1ccc2c(c1)O[C@H](c1ccc3c(c1)OCO3)[C@@H](OC(=O)N[C@H](C)C1CCCCC1)C2=O	19	-1	nt	nt	i	8	nt	nt
CC(Oc1ccc(Cl)cc1)C(=O)Nc1ccc(S(=O)(=O)Nc2nccs2)cc1 (stereo unspecified)	10	-5	1	3	i	-11	-5	3
CC1CCC2C(=O)N(c3ccc(NC4CCCCC4)c([N+](=O)[O-])c3)C(=O)C2C1 (stereo unspecified)	76*	-2	7	0	i	7	nt	1
O=Cc1ccc(Oc2nc(Cl)ncc2F)cc1	nt	14	1	1	i	14	-10	-9
Cc1ccc2c(c1)[nH]c1c(=O)n(Cc3ccco3)cnc12	nt	1	1	0	i	-3	nt	-36
O=C(Nc1ccc(F)cc1)c1cc(S(=O)(=O)Nc2ccc(F)cc2)cs1	-11	-9	1	-12	i	-4	17	nt
O=C1C2C3C=CC(C3)C2C(=O)N1CNc1ccccn1 (stereo unspecified)	3	-4	-1	4	i	1	nt	nt

Some of these compounds in order of formula weight, highest first.
SMILES	CSC inhib	eIF4H FP inh	MT1-MMP act inh	MT1-MMP act inh RFP	Rce1 inh	PABP FP inh	UUG fidelity	HIV Env fusion
COc1ccc2c(c1)O[C@H](c1ccc3c(c1)OCO3)[C@@H](OC(=O)N[C@H](C)C1CCCCC1)C2=O	19	-1	nt	nt	i	8	nt	nt
CC(Oc1ccc(Cl)cc1)C(=O)Nc1ccc(S(=O)(=O)Nc2nccs2)cc1 (stereo unspecified)	10	-5	1	3	i	-11	-5	3
O=C(Nc1ccc(F)cc1)c1cc(S(=O)(=O)Nc2ccc(F)cc2)cs1	-11	-9	1	-12	i	-4	17	nt
CC1CCC2C(=O)N(c3ccc(NC4CCCCC4)c([N+](=O)[O-])c3)C(=O)C2C1 (stereo unspecified)	76*	-2	7	0	i	7	nt	1
CCCc1nnc(SCC(=O)N2C(C)CCCC2C)n1CC1CCCO1 (stereo unspecified)	-2	4	9	4	i	6	-14	-36
O=C(O)CC12CSc3[nH]c(=O)sc3C1c1ccccc1OC2=O (stereo unspecified)	nt	3	nt	nt	i	24	nt	nt
CC(CCc1ccccc1)NC(=O)c1ccc(Cl)nc1 (stereo unspecified)	-11	1	-2	2	i	3	-2	-24
Cc1ccc2c(c1)[nH]c1c(=O)n(Cc3ccco3)cnc12	nt	1	1	0	i	-3	nt	-36
O=C1C2C3C=CC(C3)C2C(=O)N1CNc1ccccn1 (stereo unspecified)	3	-4	-1	4	i	1	nt	nt
O=Cc1ccc(Oc2nc(Cl)ncc2F)cc1	nt	14	1	1	i	14	-10	-9
Cc1cccc(Cl)c1OCCCn1ccnc1	-1	1	-2	2	i	8	-10	-11

(list continues)
SMILES	CSC inhib	eIF4H FP inh	MT1-MMP act inh	MT1-MMP act inh RFP	Rce1 inh	PABP FP inh	UUG fidelity	HIV Env fusion
CC1(C)CC(=O)C=C(NCC2CCCO2)C1 (stereo unspecified)	-9	2	13	3	i	2	-3	nt
COc1ccc2[nH]cc(CCN3C(=O)c4ccc(C(=O)O)cc4C3=O)c2c1	-6	10	4	2	i	7	-1	-44
C/C(CC(=O)Nc1ccc2c(c1)OCCO2)=N\NC(=O)COc1cccc(C)c1	-4	3	-3	-2	i	7	-11	-4
O=S(=O)(Nc1ccc2cn[nH]c2c1)c1ccc(Cl)cc1	-1	-6	-3	-2	i	-13	-8	nt
COc1cccc(/C=N/n2cnc3ccccc32)c1OC	-7	5	-1	-3	i	-4	-28	-284
Cc1ccc(Cn2nnc3c(=O)[nH]c(C4CCN(S(=O)(=O)c5ccccc5)CC4)nc32)cc1	12	-11	-3	0	i	-3	nt	nt
CCn1c(-c2ccccc2)c[nH]c1=S	nt	-6	1	-4	i	6	-30	nt
O=S(=O)(Nc1ccc(Cl)cn1)c1ccc(F)cc1	-20	10	3	3	i	1	-27	-12
O=C(O)CCn1c(C(=O)O)cc2sccc21	3	0	-4	3	i	11	-9	nt
Cc1ccccc1Cn1c(C(=O)OC(C)C)cc2c1ccn2C	-4	-7	-8	-2	i	9	-22	54*
Cc1ccc(NC(=O)C2C3CC4OC(=O)C2C4C3)cc1Cl (stereo unspecified)	-8	0	0	-2	i	-11	-6	nt
Cc1cc(C)n(-c2ccc(S(N)(=O)=O)cc2[N+](=O)[O-])n1	-7	1	-2	7	i	-14	-7	14
ON/C=N/C(=S)Nc1ncc(C(F)(F)F)cc1Cl	-4	-2	-2	5	i	-12	nt	-27
CC1(C(=O)OCC(=O)Nc2ccc(C(N)=O)cc2)CC1(Cl)Cl (stereo unspecified)	-10	-15	-1	2	i	0	nt	-10
COc1ncnc2c1sc1nc(-c3ccccc3)c3c(c12)CCCC3	10	-4	-4	-1	i	12	nt	-22
COc1cccc(C(c2sc3ncnn3c2O)N2CC(C)OC(C)C2)c1 (stereo unspecified)	-10	2	-2	-1	i	-10	-1	-12
CCn1c(=O)c2c3c(sc2n(C)c1=O)CCC3	-2	-10	-4	4	i	2	-22	-13
Cc1ccc(O)c(CCc2ccccc2)n1	2	-8	3	8	i	0	-33	5
CN(C)S(=O)(=O)NCCNc1ccc(C(F)(F)F)cc1[N+](=O)[O-]	-4	2	8	2	i	3	nt	13
S=c1[nH]nc(-c2ccc(Cl)cc2)n1-c1ccc(Cl)cc1	-11	-7	4	0	i	-8	-24	-6
CC1CCCCN1CCCNC(=O)C1CCN(c2nc3ccccc3o2)CC1 (stereo unspecified)	-12	-1	-2	3	i	-3	-8	3
COc1ccc2[nH]c(C(=O)N(C)c3ccc(F)cc3F)cc2c1	nt	8	3	4	i	7	nt	20
O=C(CSc1nc2ccccc2c(=O)n1Cc1ccco1)NCc1ccco1	10	16	-2	4	i	1	-16	nt
O=C(Nc1ccc(F)c(Cl)c1)N1CCCC1	nt	0	0	2	i	-5	nt	4
Cc1ccc(S(=O)(=O)NCCC(=O)NCC(=O)Nc2c(C)cccc2C)cc1C	-3	nt	-3	2	i	nt	-17	-27
CCOC(=O)c1[nH]ncc1CN1CCCC(C(=O)c2cccc3ccccc23)C1 (stereo unspecified)	-7	8	0	1	i	2	nt	-82
COc1ccc2[nH]c(=O)c(CN(CC3CCCO3)C(=O)Nc3ccccc3)cc2c1 (stereo unspecified)	-11	-2	-5	-1	i	-12	-1	5
COc1ccc(-c2nn(-c3ccccc3)cc2C(=O)O)cc1N	-3	-4	2	-1	nt	-2	3	11
COc1ccc([C@H]2CC(=O)C=C(c3ccccc3OC)C2)cc1OC	-6	nt	5	-5	nt	nt	-2	-25
COc1cc(C(C)=O)ccc1OCc1cc(C(=O)N(C)CCC2CCCCO2)no1 (stereo unspecified)	1	-8	-2	1	i	3	-7	-64
Cc1ccc(C)c(NC(=S)N2CCC(NC(=O)C3CCCCC3)CC2)c1	-7	-2	1	1	i	-2	-15	7
CCOC(=O)c1ccc(NC(=O)c2ccc(C)c(S(=O)(=O)N3CCOCC3)c2)cc1	-13	-3	-10	-31	i	5	nt	nt
COc1cccc(C2=CC(=O)C(C(C)(C)C)N2C(C)(C)C)c1 (stereo unspecified)	nt	nt	1	3	nt	nt	13	-8
O=C(NC1CCCN(CCc2ccccc2)C1)c1c(F)cccc1F (stereo unspecified)	-8	-1	0	2	i	5	-21	10
C=CCc1cc(OC)ccc1OCCOCCC(C(=O)OCC)C(=O)OCC	-6	-6	4	-4	i	-19	nt	13
C[C@H]1CN([C@@H](C)CO)C(=O)c2c(c3ccccc3n2C)-c2ccccc2CO[C@H]1CN(C)Cc1cccc(F)c1	nt	nt	0	1	nt	nt	-9	67*
CC(=O)c1cccc(NC(=O)CCc2nnc3ccc(N4CCN(C)CC4)nn23)c1	-5	-10	-6	0	i	-6	-24	0
Cn1c(=O)c2c(nc(OCc3cccnc3)n2Cc2c(F)cccc2Cl)n(C)c1=O	2	4	-5	-5	i	2	2	nt
CCOC(=O)C1CCN(c2nc(C)cc(C)c2C#N)CC1	nt	-1	0	1	i	-1	nt	8
CC(/C=C\c1ccccc1)=C/C(=O)O	-5	6	2	-1	i	9	nt	-11
Cc1cccc(-c2nc(NCCN(C)C)c3ccccc3n2)c1	nt	nt	6	6	nt	nt	-1	-9
CCOC(=O)c1c(S(=O)(=O)NCC(=O)Nc2cccc(C)n2)c(C)n(C)c1C	-29	nt	2	1	i	nt	13	-6
COc1ccc(N2C(=O)CC(N3CCN(c4ccccc4F)CC3)C2=O)cc1 (stereo unspecified)	-13	6	5	-1	i	5	20	nt
CN(c1ccccc1)S(=O)(=O)c1cccc(C(=O)NCCCN2CCCC2=O)c1	-2	nt	6	1	i	nt	-4	19
Cc1cc(OC(=O)c2cc([N+](=O)[O-])ccc2Cl)c([N+](=O)[O-])c(=O)[nH]1	6	-15	0	5	i	-11	-15	-8
COc1ccc(CCN2CN(S(=O)(=O)c3ccc(OC)cc3)c3nc4ccccc4nc32)cc1	nt	2	-4	-1	i	-1	nt	19
C[C@H](CO)N1C[C@H](C)[C@H](CN(C)S(=O)(=O)c2ccc(Cl)cc2)OCc2ccccc2-c2c(n(C)c3ccccc23)C1=O	nt	nt	-11	-16	nt	nt	17	82*
